AF4-AF9 inh: inhibitors of AF4 peptide binding to AF9, primary screen, biochemical, AlphaScreen, biotin-AF4 peptide, FLAG-AF9, single point | inhibition, % at 10 µM | 350,000 compounds, 0.47% hits;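 active = every replicate reaching a set inhibition limit, whatever the replicate mean, cut at about 25% in these data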;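 note: 0% = plate neutral control median and 100% = total signal loss; the record names both 10 and 1 µM as test concentration; the first replicate is given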
Target sequence (P42568 whole entry, looked up): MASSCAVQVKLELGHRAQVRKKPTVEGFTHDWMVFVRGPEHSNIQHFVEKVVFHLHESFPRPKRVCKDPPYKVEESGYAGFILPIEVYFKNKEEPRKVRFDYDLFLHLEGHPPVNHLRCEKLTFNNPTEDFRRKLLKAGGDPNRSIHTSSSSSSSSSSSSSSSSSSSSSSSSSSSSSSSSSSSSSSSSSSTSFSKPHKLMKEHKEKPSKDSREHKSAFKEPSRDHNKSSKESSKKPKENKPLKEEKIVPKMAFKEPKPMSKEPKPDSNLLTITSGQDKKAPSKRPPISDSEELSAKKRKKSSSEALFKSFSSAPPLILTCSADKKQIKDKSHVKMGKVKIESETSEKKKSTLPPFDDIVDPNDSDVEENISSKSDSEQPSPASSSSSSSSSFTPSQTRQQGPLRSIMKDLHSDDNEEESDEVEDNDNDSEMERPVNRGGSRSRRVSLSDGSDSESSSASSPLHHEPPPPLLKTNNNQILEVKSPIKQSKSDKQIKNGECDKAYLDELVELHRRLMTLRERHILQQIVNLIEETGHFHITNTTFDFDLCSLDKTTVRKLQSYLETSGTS
rRNA inh HTS: reduced GFP signal of wild-type E. coli, primary screen, bacterial rRNA inhibitor project, GFP/RFP fluorescence, OD600, single point; 350,000 compounds, 1.6% hits; GFP signal change (wild-type ribosome), % (no concentration beside the values); AID 720706, 2013; E. coli WT GFP vs humanized-ribosome RFP mutants, 24 h; stronger effect = lower value; DMSO median 0, no signal -100;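 active = significant combined selectivity score with lowered wild-type GFP, culture density cut under 30%, mutant RFP and density less affected; inactive = any of these conditions unmet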; note: one replicate is shown; some compounds called inactive have numbers as strong as hits
rRNA inh HTS OD600: second read-out of rRNA inh HTS, no call of its own (marks repeat the call); OD600 change, %; measured here: OD600 growth;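 optical density of the mix in the first replicate; 0 = DMSO median and -100 = no signal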
rRNA inh HTS RFP: recorded beside rRNA inh HTS, whose call it bears; RFP signal change, %; measured here: RFP humanized mutant strains;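 first replicate; 0 = DMSO median and -100 = no signal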
* marks the source's active call; other numbers are inactive results; & = joins results of further samples. Some of the compounds tested; count on the stated rates, not on these rows.

no.	AF4-AF9 inh	rRNA inh HTS	rRNA inh HTS OD600	Structure	rRNA inh HTS RFP
1	-0.3	-2	-13	C[C@@H]1CN([C@@H](C)CO)C(=O)c2cc(NC(=O)c3ccncc3)ccc2O[C@H]1CN(C)Cc1ccc(Oc2ccccc2)cc1	17
2	-4.1	6	5	CNC[C@H]1Oc2ccc(NS(=O)(=O)c3ccc(F)cc3)cc2CC(=O)N([C@H](C)CO)C[C@@H]1C	-2.2
3	0.0	2	2	O=C(CC1CC1)Nc1ccc2c(c1)[C@@H]1C[C@@H](CC(=O)NC3CCCCC3)O[C@H](CO)[C@@H]1O2	-3.7
4	0.1	0	-5	COc1ccc(S(=O)(=O)N(C)C[C@@H]2Oc3c(NC(=O)C4CCCCC4)cccc3C(=O)N([C@H](C)CO)C[C@H]2C)cc1	1.2
5	-3.9	0	-4	COCC(=O)N1CC(=O)N2[C@H](C1)[C@H](c1ccc(-c3ccccc3)cc1)[C@@H]2CO	-6.9
6	0.0	2	9	C[C@@H]1CN([C@@H](C)CO)C(=O)c2cc(NC(=O)Cn3cnnn3)ccc2O[C@@H]1CN(C)CC1CC1	-0.7
7	1.2	-2	6	CCC(=O)N(C)C[C@H]1Oc2ncc(C#Cc3ccc(OC)cc3)cc2C(=O)N([C@H](C)CO)C[C@H]1C	-1.9
8	-2.7	4	10	O=C(C[C@H]1C[C@@H]2c3cc(NC(=O)C4CCC4)ccc3O[C@@H]2[C@H](CO)O1)NCc1ccncc1	-0.8
9	-2.4	5	4	COCC#Cc1cnc2c(c1)C(=O)N([C@@H](C)CO)C[C@@H](C)[C@H](CN(C)C(=O)c1ccc(F)cc1)O2	-2.5
10	-1.8	1	2	COCC(=O)N1C[C@H](C)[C@H](OC)CN(C)C(=O)c2ccc(NS(C)(=O)=O)cc2OC[C@H]1C	-1.5
11	3.5	-5	-2	C[C@H]1CN([C@@H](C)CO)S(=O)(=O)c2ccc(-c3ccc(F)cc3)cc2O[C@@H]1CN(C)C	-1.0
12	2.5	-2	-4	CC(C)NC(=O)Nc1ccc2c(c1)CC(=O)N([C@@H](C)CO)C[C@H](C)[C@H](CN(C)Cc1ccc(C(=O)Nc3ccccc3N)cc1)O2	-0.8
13	1.8	-8	-45	C/C=C/c1ccccc1[C@H]1[C@@H](C#N)N(c2nc(CC)cs2)[C@@H]1CO	-7.2
14	-0.5	-38*	-24*	Cc1cccc(-c2ccc([C@@H]3[C@@H](CO)N4CCCCN(S(=O)(=O)c5cccs5)C[C@H]34)cc2)c1	-1.7*
15	-0.3	2	0	O=C(C[C@H]1C[C@H]2c3cc(NC(=O)Nc4ccccc4)ccc3O[C@H]2[C@@H](CO)O1)NCc1ccccn1	1.5
16	1.2	0	5	CC(C)NC(=O)Nc1ccc2c(c1)C(=O)N([C@H](C)CO)C[C@@H](C)[C@H](CN(C)Cc1ccncc1)OCCCC[C@@H](C)O2	-4.1
17	1.2	3	14	Cc1noc(C)c1NC(=O)Nc1ccc2c(c1)C(=O)N([C@H](C)CO)C[C@@H](C)[C@H](CN(C)Cc1ccccc1)O2	0.4
18	1.5	-3	7	C[C@H](CO)N1C[C@H](C)[C@@H](CN(C)C(=O)C2CCCCC2)Oc2cc(C#CCN(C)C)ccc2S1(=O)=O	-0.6
19	0.8	2	6	C[C@@H]1CCCCO[C@@H](CN(C)C(=O)Nc2ccc3c(c2)OCO3)[C@H](C)CN([C@@H](C)CO)C(=O)c2cc(NC(=O)C3CCCCC3)ccc2O1	-1.3
20	4.3	5	3	COc1ccc(S(=O)(=O)N(C)C[C@H]2OCCCC[C@@H](C)Oc3ccc(NC(=O)CCCN(C)C)cc3C(=O)N([C@@H](C)CO)C[C@@H]2C)cc1	-1.1
21	-0.4	2	8	COc1ccc(OCc2cn(CC(=O)c3ccc(O)cc3)nn2)cc1	-0.6
22	-4.0	1	16	CN(Cc1ccccc1)C(=O)[C@@H]1CCCN1C(=O)[C@@H]1CCCN1C(=O)c1ccc(Cl)cc1	3.2
23	-0.1	2	2	C[C@@H]1CCCCO[C@@H](CN(C)CC2CCCCC2)[C@H](C)CN([C@H](C)CO)C(=O)c2cc(NC(=O)CCCCCC(=O)Nc3ccccc3N)ccc2O1	2.7
24	-3.1	-22*	-14*	CC[n+]1c(C)cc2c(sc3ccccc32)c1C	-3.0*
25	-1.7	-5	-2	C[C@@H]1CN([C@H](C)CO)C(=O)Cc2cc(NC(=O)CCC(F)(F)F)ccc2O[C@H]1CN(C)S(=O)(=O)c1ccc(Cl)cc1	1.7
26	3.9	-8	-2	c1ccc(N2CCN(c3nccn4ccnc34)CC2)nc1	3.8
27	-2.8	5	3	COCCN1CCC(CO)C1 (configuration not stated)	2.0
28	-2.7	4	8	C[C@@H]1CN([C@@H](C)CO)C(=O)c2cc(NS(=O)(=O)c3cn(C)cn3)ccc2O[C@@H]1CN(C)Cc1ccc(C(=O)O)cc1	-1.2
29	-0.4	4	1	CCN1[C@H](C(=O)N(C)C)[C@@H](CO)[C@@H]2Cn3c(ccc(C4=CCCC4)c3=O)[C@@H]21	-1.5
30	3.9	-2	-6	COc1cccc(NC(=O)N2CC(=O)N3[C@H](CO)[C@H](c4ccc(C#CCC5CCCC5)cc4)[C@H]3C2)c1	2.1
31	0.4	1	8	CCC(=O)N[C@@H]1CC[C@@H](CCNS(=O)(=O)c2ccc(Cl)cc2)O[C@@H]1CO	-0.5
32	4.2	-13	-8	Cc1noc(C)c1NC(=O)NCC[C@@H]1CC[C@@H](NC(=O)Nc2cccc(Cl)c2)[C@@H](CO)O1	5.0
33	-1.1	1	8	O=C(Nc1ccccc1)[C@@H]1[C@@H](CO)[C@@H]2Cn3c(cccc3=O)[C@@H]2N1C(=O)C1CCC1	1.0
34	2.8	4	14	Cc1ccsc1CNC(=O)C1(C)CCN1C(=O)C(C)C (configuration not stated)	-2.1
35	2.9	1	3	C/C=C/c1ccc([C@H]2[C@@H](CO)N[C@@H]2CN(CC)C(=O)c2ccccn2)cc1	-0.6
36	-0.3	18	22	CN(C)c1cccc(CNC(=O)c2ccc3sc([C@@H]4O[C@H](CO)[C@H](O)[C@H](O)[C@H]4O)nc3c2)c1	-0.9
37	-1.5	0	4	O=C(N[C@H]1CC[C@@H](CCn2cc(C3(O)CCCC3)nn2)O[C@@H]1CO)C1CCCC1	-2.4
38	5.6	5	12	CCN(CC)CCNC(=O)c1ccc(NC(=O)c2cc(S(=O)(=O)N3CCCCC3)ccc2N2CCOCC2)cc1	-3.0
39	-1.7	1	8	C[C@@H]1CN([C@H](C)CO)C(=O)Cc2cc(NS(=O)(=O)c3cccs3)ccc2O[C@H]1CN(C)C	2.1
40	-1.3	-2	-1	C[C@H]1CN([C@@H](C)CO)C(=O)c2cccc(NS(=O)(=O)c3ccc(F)cc3)c2O[C@@H]1CN(C)S(=O)(=O)c1ccc(Cl)cc1	1.9
41	1.4	-7	-7	COCC(=O)Nc1ccc2c(c1)OC[C@@H](C)N(Cc1cc(-c3ccccc3)on1)C[C@@H](C)[C@H](OC)CN(C)C2=O	3.9
42	4.9	0	4	C[C@H]1CN([C@@H](C)CO)C(=O)Cc2cc(NS(=O)(=O)c3ccccc3)ccc2O[C@H]1CN(C)Cc1ccc(Oc2ccccc2)cc1	2.5
43	8.0	-2	7	COc1ccc(S(=O)(=O)Nc2cccc3c2O[C@H](CN(C)C(=O)Nc2ccc4c(c2)OCO4)[C@H](C)CN([C@H](C)CO)C3=O)cc1	-0.7
44	-1.4	-1	4	C[C@H](CO)N1C[C@H](C)[C@@H](CN(C)C(=O)NC2CCCCC2)Oc2ccc(N(C)C)cc2CC1=O	1.4
45	-2.9	0	4	C[C@H]1CN([C@@H](C)CO)C(=O)c2cccc(N(C)C)c2O[C@@H]1CN(C)Cc1ccc2c(c1)OCO2	3.2
46	-3.9	-2	5	COCCNC(=O)C[C@@H]1CC[C@H]2[C@@H](COC[C@H](O)CN2C(=O)Nc2ccccc2OC)O1	-2.9
47	-1.7	-4	-7	Cc1ccccc1S(=O)(=O)NC(=O)C1(C)CCN1C(=O)COc1ccc(Cl)cc1 (configuration not stated)	-0.8
48	-1.8	1	2	O=C(C[C@@H]1C=C[C@H](NC(=O)Nc2ccccc2F)[C@@H](CO)O1)NCc1ccc(Cl)cc1	1.4
49	-1.8	3	3	CO[C@@H]1CN(C)C(=O)c2ccc(NS(C)(=O)=O)cc2OC[C@@H](C)N(CC2CCOCC2)C[C@@H]1C	-1.0
50	-5.4	2	0	C[C@H]1CN([C@@H](C)CO)C(=O)c2cc(-c3cncnc3)cnc2O[C@@H]1CN(C)Cc1ccccc1	-2.0
51	-3.3	6	7	C[C@@H]1CCCCO[C@@H](CN(C)Cc2ccc(C(=O)O)cc2)[C@H](C)CN([C@@H](C)CO)C(=O)c2cc(NC(=O)c3ccncc3)ccc2O1	0.9
52	-2.7	-36	-58	CS(=O)(=O)N1CC(=O)N2[C@H](C1)[C@@H](c1ccc(C#Cc3ccccc3)cc1)[C@@H]2CO	-3.4
53	-5.2	0	-8	CCNC(=O)[C@@H]1[C@@H](CO)[C@@H]2Cn3c(cccc3=O)[C@@H]2N1CC1CCCCC1	-0.8
54	3.6&4.0	0	6	Cc1ccc2nc(-c3cccc(SC4CCCCC4)c3)c(NC3CCCCC3)n2c1	5.2

An excerpt of these results, in markdown.
| no. | mol | AF4-AF9 inh | rRNA inh HTS | rRNA inh HTS OD600 | rRNA inh HTS RFP |
| --- | --- | --- | --- | --- | --- |
| 50 | C[C@H]1CN([C@@H](C)CO)C(=O)c2cc(-c3cncnc3)cnc2O[C@@H]1CN(C)Cc1ccccc1 | -5.4 | 2 | 0 | -2.0 |
| 51 | C[C@@H]1CCCCO[C@@H](CN(C)Cc2ccc(C(=O)O)cc2)[C@H](C)CN([C@@H](C)CO)C(=O)c2cc(NC(=O)c3ccncc3)ccc2O1 | -3.3 | 6 | 7 | 0.9 |

Molecules above containing a Cl atom (7):
no.	AF4-AF9 inh	rRNA inh HTS	rRNA inh HTS OD600	Structure	rRNA inh HTS RFP
22	-4.0	1	16	CN(Cc1ccccc1)C(=O)[C@@H]1CCCN1C(=O)[C@@H]1CCCN1C(=O)c1ccc(Cl)cc1	3.2
25	-1.7	-5	-2	C[C@@H]1CN([C@H](C)CO)C(=O)Cc2cc(NC(=O)CCC(F)(F)F)ccc2O[C@H]1CN(C)S(=O)(=O)c1ccc(Cl)cc1	1.7
31	0.4	1	8	CCC(=O)N[C@@H]1CC[C@@H](CCNS(=O)(=O)c2ccc(Cl)cc2)O[C@@H]1CO	-0.5
32	4.2	-13	-8	Cc1noc(C)c1NC(=O)NCC[C@@H]1CC[C@@H](NC(=O)Nc2cccc(Cl)c2)[C@@H](CO)O1	5.0
40	-1.3	-2	-1	C[C@H]1CN([C@@H](C)CO)C(=O)c2cccc(NS(=O)(=O)c3ccc(F)cc3)c2O[C@@H]1CN(C)S(=O)(=O)c1ccc(Cl)cc1	1.9
47	-1.7	-4	-7	Cc1ccccc1S(=O)(=O)NC(=O)C1(C)CCN1C(=O)COc1ccc(Cl)cc1 (configuration not stated)	-0.8
48	-1.8	1	2	O=C(C[C@@H]1C=C[C@H](NC(=O)Nc2ccccc2F)[C@@H](CO)O1)NCc1ccc(Cl)cc1	1.4

Source: PubChem (Broad Institute)
